PINK1 expr mod – changes PINK1 expression; Potency, µM (doses to about 76.6 µM), for inactives: at the highest dose activation (PINK1 increase), usual class: activators; 0.2% of 410,000 active; PINK1 immunofluorescence, high-content cytometry, 24 h; active = well fitted activation curve with a large enough effect; inconclusive = small, poorly fitted or top-dose-only effect; inactive = flat fitted curve, though single readings scatter; cell line not stated here;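 further: potency means the concentration at half of the fitted maximal effect; % of control where 0% means no effect; nearly all actives have a fitted effect of over 65% in size; a mitochondrial uncoupler was the plate control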
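Decision-based qHTS: stable cells, 24 h exposure to five compound concentrations, CCCP as control. Fixed cells stained for PINK1 plus nuclear, mitochondrial and cell markers, cytometer read.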
CtBP-E1A inh – blocks the CtBP interaction with E1A; AlphaScreen GST-E1A/His-CtBP binding, 1536-well; stronger effect = lower value; control for the full effect not named in the record; activity change, % (concentration not given with the values); 0.49% of 340,000 active; in the data active means activity change below about -65%; inconclusive means about -30% to -65%; inactive means above about -30%; further: on the % scale 0 is the no-effect control and ±100 the full control effect
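GST-E1A and His-tagged CtBP (125 nM each as 5X stock) were preincubated with pin-transferred compound for 2 h at 37 °C in the dark, then glutathione donor and nickel acceptor beads were added for 1 h before AlphaScreen reading.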
TRPML1 agonist – activates the human TRPML1 channel | Q9GZU1 | activation, % (no concentration beside the values) | AID 624414 | 0.12% of 410,000 active | TRPML1-expressing cells, Ca2+ dye fluorescence, FDSS; host cell line not named in the record; reference of the full effect not given here; in the data active = activation above about 50%; inconclusive = about 30% to 50%; inactive = below about 30%; further: 0% is about no effect; the text of the record puts the active cut at 80%
Target sequence (Q9GZU1 whole entry, looked up): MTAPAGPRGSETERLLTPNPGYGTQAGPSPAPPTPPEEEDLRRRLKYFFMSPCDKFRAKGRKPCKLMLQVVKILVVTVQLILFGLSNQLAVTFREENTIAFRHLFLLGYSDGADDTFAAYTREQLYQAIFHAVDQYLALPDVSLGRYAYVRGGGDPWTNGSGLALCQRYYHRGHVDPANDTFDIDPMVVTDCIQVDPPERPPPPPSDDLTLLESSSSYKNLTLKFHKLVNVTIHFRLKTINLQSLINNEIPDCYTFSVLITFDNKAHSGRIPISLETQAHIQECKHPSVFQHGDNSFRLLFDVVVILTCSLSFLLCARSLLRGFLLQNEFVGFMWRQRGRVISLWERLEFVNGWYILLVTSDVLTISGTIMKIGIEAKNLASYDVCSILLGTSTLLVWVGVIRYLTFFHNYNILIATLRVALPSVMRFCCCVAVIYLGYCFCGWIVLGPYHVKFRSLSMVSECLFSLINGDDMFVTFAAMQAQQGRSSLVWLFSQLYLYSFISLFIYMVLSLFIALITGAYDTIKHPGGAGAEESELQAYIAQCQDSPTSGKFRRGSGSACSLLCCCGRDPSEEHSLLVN
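Tet-induced TRPML1-DL cells, 1,500 per well, cultured overnight, were loaded with a no-wash Ca2+ dye for 45–90 min. Calcium fluorescence was recorded on the FDSS for 110 s after compound addition, before the EC80 agonist (4 uM 54-4) was added.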
Six1-Eya2 blk – Six1/Eya2 interaction inhibition; activity change, % (concentration not given with the values); Q15475+O00167; AlphaScreen GST-Six1/His-Eya2 binding, biochemical; stronger effect = lower value; control for the full effect not named in the record; AID 651725; 0.56% of 360,000 active; in the data active = activity change below about -65%; inconclusive = about -30% to -65%; inactive = above about -30%; further: on the % scale 0 is the no-effect control and ±100 the full control effect
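GST-Six1 + His-Eya2 (5X stock: 250/500 nM); Tris pH 8.0, 300 mM NaCl, 0.05% BSA, 0.02% Tween 20; GSH donor/Ni acceptor beads; 1 h 37 °C dark; AlphaScreen readout.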
D2 ag – agonists of human D2 dopamine receptor (beta-arrestin); 0.084% of 360,000 active; activation, % (concentration not given with the values); DiscoveRx PathHunter D2 beta-arrestin, luminescence, 90 min; 100% = 57 uM dopamine signal; in the data active = activation above about 40%; inconclusive = about 15% to 40%; inactive = below about 15%; further: compound concentration not given in the record; the text of the record calls up to 30% inactive
Target sequence (P14416 whole entry, looked up): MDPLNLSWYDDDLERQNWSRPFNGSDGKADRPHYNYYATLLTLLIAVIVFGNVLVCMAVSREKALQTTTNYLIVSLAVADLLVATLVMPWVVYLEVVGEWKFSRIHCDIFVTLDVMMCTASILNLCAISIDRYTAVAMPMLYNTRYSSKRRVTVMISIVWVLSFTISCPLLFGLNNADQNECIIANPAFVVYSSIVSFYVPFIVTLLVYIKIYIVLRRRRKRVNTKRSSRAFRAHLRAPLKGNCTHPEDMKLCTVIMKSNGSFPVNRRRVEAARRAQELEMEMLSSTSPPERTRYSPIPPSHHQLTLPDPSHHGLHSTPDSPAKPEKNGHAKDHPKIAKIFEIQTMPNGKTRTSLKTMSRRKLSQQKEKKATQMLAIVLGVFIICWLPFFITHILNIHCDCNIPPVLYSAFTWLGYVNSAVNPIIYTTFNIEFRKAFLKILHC
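DiscoveRx PathHunter D2 beta-arrestin cells (2,100/well) attached overnight, then compound-stimulated 90 min at 37 C in HBSS/10 mM HEPES/0.1% Tween-20 buffer; beta-galactosidase complementation read by luminescence after 1 h at ambient temperature. Dopamine 57 uM final (EC100) as control.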
D2 potentiator – human D2 receptor positive allosteric modulation; potentiation, % (concentration not given with the values); DiscoveRx D2 beta-arrestin cells, luminescence, 90 min; 100% = 57 uM dopamine signal; 0.23% of 360,000 active; P14416; active = potentiation of 50% or more; inconclusive = 30% to 50%; inactive = 30% or less;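 further: compound concentration not given in the record; tested on top of an EC20 dose of dopamine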
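PathHunter D2 cells, attached overnight at 37 deg C, received compound in DMSO plus dopamine at EC20 (50 nM final) for 90 min at 37 deg C. Beta-arrestin recruitment was read as luminescence after 1 h with detection reagent at ambient temperature.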
Numbers without * were called inactive; [ ] = remark or other dose.

For CCOC(=O)c1ccc(NC(=O)NCc2ccn(CC)n2)cc1 the results were PINK1 expr mod 1.1%[38.3 µM], CtBP-E1A inh -7, TRPML1 agonist -0.6, Six1-Eya2 blk -5, D2 ag -0.3 and D2 potentiator -1.
CCCN(CC(=O)Nc1ccc(F)c(F)c1F)C(=O)c1ccc(N2CCCC2=O)cc1 was read as PINK1 expr mod 0.5%, TRPML1 agonist 0.3, Six1-Eya2 blk 7, D2 ag -4.6 and D2 potentiator 11.
Screening CC(C(=O)N(C1CC1)C1(C(=O)Nc2ccccc2)CCCC1)N1C(=O)c2ccccc2C1=O (configuration not stated) returned PINK1 expr mod 0.3%, CtBP-E1A inh 2, TRPML1 agonist -0.7, Six1-Eya2 blk 0, D2 ag -1.6 and D2 potentiator -6.
`Cc1ccc(C(=O)Nc2cc(C)nn2CCC#N)cc1` gave PINK1 expr mod 0.4%, CtBP-E1A inh 0, TRPML1 agonist 0.8, Six1-Eya2 blk 8, D2 ag -4.4 and D2 potentiator -3.
`CCOC(=O)CSc1nc2c(sc(=S)n2CCc2ccccc2)c(=O)n1Cc1ccco1` gave PINK1 expr mod 3.2%[38.3 µM], CtBP-E1A inh -13, TRPML1 agonist 0.5, Six1-Eya2 blk -7, D2 ag -4.7 and D2 potentiator -17.
`COc1ccc(NC(=O)CSc2ncnc3sc(C)cc23)cc1` gave PINK1 expr mod -2.0%, CtBP-E1A inh -3, TRPML1 agonist 3.1, Six1-Eya2 blk -9, D2 ag -0.3 and D2 potentiator -2.
Screening O=C(NCc1ccccc1Cl)c1ccc(CS(=O)(=O)c2ccccc2)o1 returned PINK1 expr mod -2.1%, CtBP-E1A inh 1, TRPML1 agonist 2.8, Six1-Eya2 blk 2, D2 ag 2.2 and D2 potentiator -2.
Screening O=[N+]([O-])c1ccc(Cl)cc1NCC1CCCO1 (configuration not stated) returned PINK1 expr mod -1.7%, CtBP-E1A inh -4, TRPML1 agonist 2.5, Six1-Eya2 blk -7, D2 ag 1.4 and D2 potentiator -8.
`CCn1c(=O)c(C(=O)NCc2ccccc2Cl)c(O)c2ccccc21` gave PINK1 expr mod 5.9%, CtBP-E1A inh 10, TRPML1 agonist 0.0, Six1-Eya2 blk 0, D2 ag 2.3 and D2 potentiator -2.
For O=C(OCc1ccccc1F)c1cc(S(=O)(=O)N2CCCCC2)ccc1N1CCOCC1 the results were PINK1 expr mod 1.0%, CtBP-E1A inh 0, TRPML1 agonist 0.2, Six1-Eya2 blk 2, D2 ag -0.2 and D2 potentiator -12.
`Cc1cccc(S(=O)Cc2ccc(C(=O)N3CCOCC3)o2)c1` (configuration not stated) gave PINK1 expr mod -1.6%, CtBP-E1A inh 2, TRPML1 agonist 0.4, Six1-Eya2 blk 1, D2 ag 4.2 and D2 potentiator -4.
For CN1CCN(C(=O)c2cc3c(c(-c4cccc(Br)c4)n2)[C@@H](CCO)N(S(=O)C(C)(C)C)C3)CC1 (some centres not stated) the results were PINK1 expr mod 1.2%, CtBP-E1A inh 2, TRPML1 agonist 1.6, Six1-Eya2 blk 2, D2 ag -2.7 and D2 potentiator -7.
Screening c1ccc(-c2cc(N3CCCCC3)ncn2)cc1 returned PINK1 expr mod 3.9%, CtBP-E1A inh 0, TRPML1 agonist 1.8, Six1-Eya2 blk 8, D2 ag -0.4 and D2 potentiator -13.
COc1ccccc1N1CCN(CCCCOc2ccc(C)cc2C)CC1 was read as PINK1 expr mod 12%, CtBP-E1A inh -8, TRPML1 agonist 0.9, Six1-Eya2 blk -17, D2 ag 9.5 and D2 potentiator 0.
Screening CC(C)(C)C(=O)N1CCN(c2ccc([N+](=O)[O-])c(-n3nc(-c4ccccc4)c4ccccc4c3=O)c2)CC1 returned PINK1 expr mod 1.0%, CtBP-E1A inh -4, TRPML1 agonist -0.2, Six1-Eya2 blk -24, D2 ag -6.2 and D2 potentiator -8.

Gathered by group: the entries above containing two or more sulfur atoms.
`CCOC(=O)CSc1nc2c(sc(=S)n2CCc2ccccc2)c(=O)n1Cc1ccco1` gave PINK1 expr mod 3.2%[38.3 µM], CtBP-E1A inh -13, TRPML1 agonist 0.5, Six1-Eya2 blk -7, D2 ag -4.7 and D2 potentiator -17.
`COc1ccc(NC(=O)CSc2ncnc3sc(C)cc23)cc1` gave PINK1 expr mod -2.0%, CtBP-E1A inh -3, TRPML1 agonist 3.1, Six1-Eya2 blk -9, D2 ag -0.3 and D2 potentiator -2.

Remaining list, next part.
Screening CCCN1Cc2cccc(C(=O)Nc3ccc(CN4CCCC4)cc3)c2C1=O returned PINK1 expr mod -0.4%, CtBP-E1A inh 0, TRPML1 agonist -0.2, Six1-Eya2 blk 8, D2 ag -3.4 and D2 potentiator -40.
Screening CCC(C)NC(=O)C1CCCN(S(=O)(=O)c2ccc3c(c2)CC(C)N3C(C)=O)C1 (configuration not stated) returned PINK1 expr mod 0.0%, CtBP-E1A inh 3, TRPML1 agonist -0.9, Six1-Eya2 blk -3, D2 ag -5.2 and D2 potentiator -1.
`CCN(CC(=O)NCc1ccncc1)S(=O)(=O)c1cc(Cl)ccc1Cl` gave PINK1 expr mod 0.9%, CtBP-E1A inh 6, TRPML1 agonist -0.4, Six1-Eya2 blk -2, D2 ag -3.2 and D2 potentiator -2.
CCOc1cc(NC(=O)c2ccccc2C(=O)O)c(OCC)cc1NC(=O)c1ccccc1F was read as PINK1 expr mod 2.0%, CtBP-E1A inh -21, TRPML1 agonist -0.6, Six1-Eya2 blk -23, D2 ag inconclusive and D2 potentiator 8.
Screening CC1CC(C)CN(C(=O)c2ccc(Br)c(S(=O)(=O)N3CCOCC3)c2)C1 (configuration not stated) returned PINK1 expr mod 1.6%, TRPML1 agonist -0.4, Six1-Eya2 blk 1, D2 ag -0.9 and D2 potentiator 6.
`COc1ccc(C(=O)OCC(=O)NCc2cccs2)c(OC)c1OC` gave PINK1 expr mod 0.7%, TRPML1 agonist -1.8, Six1-Eya2 blk -6, D2 ag 1.0 and D2 potentiator -6.
CCC(CC)C(=O)Nc1nnc(-c2cccs2)s1 was read as PINK1 expr mod -2.1%, CtBP-E1A inh 4, TRPML1 agonist 0.0, Six1-Eya2 blk 4, D2 ag -4.5 and D2 potentiator -18.
COc1ccc(C(=O)O/N=C(\N)c2cccc(C)c2)cc1OC was read as PINK1 expr mod 0.3%, CtBP-E1A inh 2, Six1-Eya2 blk 7, D2 ag inconclusive and D2 potentiator 27.
Cc1ccnc(NC(=O)CCC(=O)N(CC(=O)NCc2ccccc2)c2ccc3c(c2)OCO3)c1 was read as PINK1 expr mod 1.1%, CtBP-E1A inh -2, TRPML1 agonist -0.7, Six1-Eya2 blk -4, D2 ag -0.7 and D2 potentiator -8.
C=CCC1=C/C(=C\c2c(N)n3nc(CC(=O)N4CCCC4)sc3nc2=O)C=C(OC)C1=O was read as PINK1 expr mod 0.7%, TRPML1 agonist 68*, Six1-Eya2 blk 11, D2 ag -5.3 and D2 potentiator -2.
`CCN(C(=O)COc1cccc(-n2cnnn2)c1)C1CCS(=O)(=O)C1` (configuration not stated) gave PINK1 expr mod -0.8%, CtBP-E1A inh 4, TRPML1 agonist -0.6, Six1-Eya2 blk 2, D2 ag 1.0 and D2 potentiator -4.
`CCC(Sc1nccn1C)C(=O)Nc1cccc2ccccc12` (configuration not stated) gave PINK1 expr mod -0.3%, CtBP-E1A inh 1, TRPML1 agonist 2.3, Six1-Eya2 blk -3, D2 ag -0.1 and D2 potentiator -2.
For Fc1cccc(-n2ncc(-c3nnnn3-c3ccccc3)c2C(F)(F)F)c1 the results were PINK1 expr mod 3.9%, CtBP-E1A inh 6, TRPML1 agonist -0.4, Six1-Eya2 blk 11, D2 ag -3.3 and D2 potentiator -5.
Screening CCC(CC)c1nnc(NC(=O)C2CC(=O)N(CCc3ccc(F)cc3)C2)s1 (configuration not stated) returned PINK1 expr mod 1.0%, CtBP-E1A inh 3, TRPML1 agonist 0.2, Six1-Eya2 blk -8, D2 ag 1.2 and D2 potentiator -1.
Screening O=C(c1ccco1)N1CCN(C(=O)c2ccccc2NS(=O)(=O)c2ccc(F)cc2)CC1 returned PINK1 expr mod -0.3%, CtBP-E1A inh 1, TRPML1 agonist -0.2, Six1-Eya2 blk 6, D2 ag -4.6 and D2 potentiator -7.

Reprinted from the part before: 2 compounds, then new ones.
Screening CCC(CC)c1nnc(NC(=O)C2CC(=O)N(CCc3ccc(F)cc3)C2)s1 (configuration not stated) returned PINK1 expr mod 1.0%, CtBP-E1A inh 3, TRPML1 agonist 0.2, Six1-Eya2 blk -8, D2 ag 1.2 and D2 potentiator -1.
Screening O=C(c1ccco1)N1CCN(C(=O)c2ccccc2NS(=O)(=O)c2ccc(F)cc2)CC1 returned PINK1 expr mod -0.3%, CtBP-E1A inh 1, TRPML1 agonist -0.2, Six1-Eya2 blk 6, D2 ag -4.6 and D2 potentiator -7.
Screening CN(CC(=O)Nc1ccc(OC(F)(F)F)cc1)C(=O)C1CCC1 returned PINK1 expr mod 1.0%, TRPML1 agonist -0.8, Six1-Eya2 blk 5, D2 ag -2.3 and D2 potentiator -7.
For S=C1NC2(CCCCC2)NN1c1ccccc1 the results were PINK1 expr mod -0.9%, CtBP-E1A inh 8, TRPML1 agonist -0.4, Six1-Eya2 blk 8, D2 ag -5.9 and D2 potentiator -17.
Screening COc1cc(CC(=O)OCC(=O)Nc2cc([N+](=O)[O-])ccc2F)cc(OC)c1OC returned PINK1 expr mod 0.5%, TRPML1 agonist 0.7, Six1-Eya2 blk 8, D2 ag -6.0 and D2 potentiator -12.
`CCOc1ccc(/C=C/C(=O)c2cc(Br)ccc(=O)c2O)cc1` gave PINK1 expr mod 0.8%, CtBP-E1A inh 10, TRPML1 agonist 0.2, Six1-Eya2 blk -20, D2 ag -7.5 and D2 potentiator -19.
For COc1ccc(OC)c(-c2nnc(SCC(=O)N3CCCc4ccccc43)o2)c1 the results were PINK1 expr mod -0.3%, CtBP-E1A inh -2, TRPML1 agonist 1.1, Six1-Eya2 blk 3, D2 ag -1.9 and D2 potentiator -12.
`O=C(NCc1ccc2c(c1)OCO2)c1ccc(COc2cc(Cl)ccc2Cl)o1` gave PINK1 expr mod 8.7%[38.3 µM], CtBP-E1A inh 1, TRPML1 agonist -0.7, Six1-Eya2 blk -8, D2 ag -0.8 and D2 potentiator -10.
`O=C(Nc1ccc2c(c1)OCO2)C(c1ccccc1)N1CCC2(CC1)OCCO2` (configuration not stated) gave PINK1 expr mod 0.0%, CtBP-E1A inh 6, TRPML1 agonist 0.5, Six1-Eya2 blk 0, D2 ag 1.6 and D2 potentiator -3.
COc1cc(C(=O)N/N=C/c2ccc(OC)c(CN3CCN(c4ccc(F)cc4)CC3)c2)ccc1O was read as PINK1 expr mod 7.4%, TRPML1 agonist 1.0, Six1-Eya2 blk inconclusive, D2 ag 2.8 and D2 potentiator -20.
`COc1cccc(CNC(=O)[C@@H]2CCCN2C(=O)[C@@H]2CCCN2)c1` gave PINK1 expr mod -0.1%, CtBP-E1A inh -2, TRPML1 agonist -0.7 and Six1-Eya2 blk 0.
COc1ccccc1N(C)S(=O)(=O)c1ccc(C(=O)OCC(N)=O)cc1 was read as PINK1 expr mod 1.0%, TRPML1 agonist -0.3, Six1-Eya2 blk 17, D2 ag 1.9 and D2 potentiator 2.
Cc1ccc[n+](CC(=O)Nc2cccc(Cl)c2)c1 was read as PINK1 expr mod 3.2%, CtBP-E1A inh 7, TRPML1 agonist -0.7, Six1-Eya2 blk 0, D2 ag -1.6 and D2 potentiator -23.

High-throughput results: PubChem BioAssay, National Center for Advancing Translational Sciences (NCATS)

Rows were taken by chance. Share with any hit: about 1.3%.
